PV pol inh: inhibitors of poliovirus RNA polymerase binding and polymerization; AID 588519; poliovirus polymerase elongation, fluorescence polarization; hits give low values; % elongation, % (compound at 16.7 µg/mL); actives 0.66% (n = 150,000); in the data active = % elongation below about 90%; note: some results filed as inactive read as strong as hits
Target sequence (P03300 1749-2209 limits assumed): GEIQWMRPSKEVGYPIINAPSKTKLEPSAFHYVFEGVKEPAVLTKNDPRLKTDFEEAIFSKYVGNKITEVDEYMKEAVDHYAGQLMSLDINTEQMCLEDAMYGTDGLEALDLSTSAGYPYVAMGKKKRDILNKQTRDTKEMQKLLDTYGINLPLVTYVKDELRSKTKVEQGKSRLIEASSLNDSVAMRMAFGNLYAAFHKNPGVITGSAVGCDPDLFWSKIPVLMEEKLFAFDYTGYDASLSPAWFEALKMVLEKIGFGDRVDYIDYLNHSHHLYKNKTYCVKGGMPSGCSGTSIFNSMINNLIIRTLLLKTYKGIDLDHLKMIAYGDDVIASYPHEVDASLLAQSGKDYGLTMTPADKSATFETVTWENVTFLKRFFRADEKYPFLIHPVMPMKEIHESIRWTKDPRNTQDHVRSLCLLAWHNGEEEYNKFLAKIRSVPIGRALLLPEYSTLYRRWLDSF
Mtb MenB inh: blocks the Mycobacterium tuberculosis MenB enzyme | MenB enzyme assay, absorbance read-out; some hits fall short of the stated cut | P9WNP5 | actives 0.43% (n = 100,000) | inhibition, %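 (about 12 µg/mL by stock and volumes)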;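 active = mean of two replicates above 30%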;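 note: 0% = no compound and 100% = wells with inactive enzyme; the first replicate is given; strong numbers were not always called active; inactives centre near -10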
Target sequence (P9WNP5 whole entry, looked up): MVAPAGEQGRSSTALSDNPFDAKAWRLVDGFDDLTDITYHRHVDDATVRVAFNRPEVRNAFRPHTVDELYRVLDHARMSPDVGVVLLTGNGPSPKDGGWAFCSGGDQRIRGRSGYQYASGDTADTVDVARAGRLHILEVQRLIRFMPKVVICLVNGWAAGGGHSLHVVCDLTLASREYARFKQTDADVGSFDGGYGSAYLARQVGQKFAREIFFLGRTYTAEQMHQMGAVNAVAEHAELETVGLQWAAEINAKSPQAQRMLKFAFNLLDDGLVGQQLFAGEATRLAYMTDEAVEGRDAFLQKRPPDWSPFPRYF
Mtb MbtI inh: MbtI salicylate synthase inhibition; P9WFX0; purified MbtI enzyme, fluorescence intensity read-out; inhibition, %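 (about 17 µg/mL by stock and volumes)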; actives 0.89% (n = 100,000);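 active = above 50% in both replicates, above 80% if mildly self-fluorescent; inactive = the rest, strongly fluorescent compounds included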;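 note: 0% = mean of negative and 100% = mean of positive controls; one replicate is shown; some compounds called inactive have numbers as strong as hits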
PV pol inh intensity: recorded beside PV pol inh, whose call it bears; % elongation; measured here: total intensity read-out; formula for this scale not given here;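 total fluorescence in place of polarization; lower means less elongation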
An asterisk follows results filed as active; i = inactive; / = not tested or not shown.

SMILES | PV pol inh | PV pol inh intensity | Mtb MenB inh | Mtb MbtI inh
CSc1nnc(CNC(=O)c2ccc(C(C)C)cc2)n1C(C)C | 102 | 102 | -10 | 1
O=C(c1cc2c(Cl)ccc3c2n1CCO3)N1CCN(c2ccccc2F)CC1 | 103 | 102 | -5 | 56
O=C1Nc2cc3c(cc2Sc2ccccc21)OCCO3 | 103 | 100 | -13 | 1
CCN(CC)c1ccc(NC(=O)c2oc3ccc4c(c3c2C)C(=O)CC(C)(C)O4)c(C)c1 | 104 | 103 | -20 | -3
COc1ccc2c(c1OC)C(=O)N(c1ncn[nH]1)C2 | 103 | 101 | -12 | 112
CC(=O)Nc1ccc(Nc2ncnc3c2cnn3Cc2ccc(Cl)cc2)cc1 | 99 | 102 | -28 | 90
CC(C)(C)C(=O)CSc1nncc2ccccc12 | 93 | 87 | / | 35
NC(=O)c1cc2ccccc2oc1=Nc1ccc(Br)cc1 | 103 | 107 | / | -4
CC(CC(=O)NN)C1(O)CCCCC1 (configuration not stated) | 98 | 104 | -38 | -15
Cc1[nH]c(C)c(S(=O)(=O)N(Cc2ccco2)C2CCCCC2)c1C(=O)N1CCCC1 | 100 | 100 | -24 | 2
CN(CC(=O)Nc1ccccc1)CC(=O)Nc1ccc(F)cc1 | 102 | 100 | -6 | 12
O=C(COC(=O)/C(=C/c1cccs1)c1cccs1)Nc1ccccc1 | 106 | 110 | -22 | -4
CCOc1ccc(NC(=O)CCOc2ccccc2)cc1 | 101 | 103 | 9 | 0
O=C1CSC(c2ccc(Cl)cc2)N1O (configuration not stated) | 102 | 101 | 14 | -7
COc1ccc(NC2CC(C)Nc3ccc(OC)cc32)cc1 (configuration not stated) | 101 | 106 | / | -21
CCCCC(=O)OCc1nc(N)nc(Nc2ccccc2C)n1 | 116 | 118 | 0 | -3
COc1cc(NC(C)=O)cc(OC)c1OC | 104 | 104 | -12 | /
Nc1nnc(CCN2CCCCC2)s1 | 105 | 109 | -10 | /
N#CCN(CC#N)C(=O)c1ccccc1 | 103 | 106 | / | -11
CCc1ccccc1N(CC(N)=O)S(=O)(=O)c1ccccc1 | 99 | 101 | 8 | -3
CC1SC(c2ccc3c(c2)OCO3)N(c2nc3ccccc3s2)C1=O (configuration not stated) | 100 | 103 | -23 | -2
CCCc1cc2c(=O)c(-c3ccc4c(c3)OCO4)c(C)oc2cc1OC(C)=O | 103 | 98 | 8 | 4
COc1ccc(CNc2ncnc3c2oc2ccccc23)cc1OC | 101 | 108 | -26 | -1
Cc1ccc(/C=C/C(=O)OC(C)C(=O)c2cccc(Cl)c2)o1 (configuration not stated) | 98 | 102 | 7 | 26
O=C1OC(c2cccc(F)c2)=N/C1=C\c1cccc2ccccc12 | 103 | 108 | 2 | -6
The results go on:
SMILES | PV pol inh | PV pol inh intensity | Mtb MenB inh | Mtb MbtI inh
CCc1nn(CC(=O)NCCc2ccc(S(N)(=O)=O)cc2)c(=O)c2cc3occc3n12 | 104 | 104 | -18 | 15
CCn1nc(C)cc1/C(N)=N/OC(=O)c1ccc(C(C)(C)C)cc1 | 102 | 96 | -25 | -2
CCC(Nc1ccccc1)C(=O)N/N=C/c1cccs1 (configuration not stated) | 103 | 101 | -42 | 12
O=C(COC(=O)CC1SC(N2CCCC2)=NC1=O)Nc1ccc(Br)cc1 (configuration not stated) | / | / | -6 | -2
N#Cc1ccc(OC(=O)c2cnccn2)cc1 | 98 | 93 | -38 | -5
COc1cccc(CC(Cc2nc3ccccc3[nH]2)c2nc3ccccc3[nH]2)c1 (configuration not stated) | 112 | 109 | -1 | /
CN1C(=O)C(C)(C)c2cc(S(=O)(=O)N(C)Cc3ccco3)ccc21 | 101 | 104 | 3 | -9
Cc1c(CNC(C)C23CC4CC(CC(C4)C2)C3)c(C(=O)O)c(C)n1Cc1ccccc1 (configuration not stated) | 103 | 106 | 5 | -2
Cc1nc2sccn2c(=O)c1S(=O)(=O)N1CCC2(CC1)OCCO2 | 99 | 102 | 1 | -5
O=C(O)c1ccc(C2SCC(=O)N2Cc2ccccc2)cc1 (configuration not stated) | 101 | 101 | 3 | -1
O=C(CCC(=O)c1ccc(Cl)cc1)OCc1ccc(F)cc1 | 102 | 102 | / | 0
CC(NC(=O)COc1ccccc1)C1COc2ccccc2O1 (configuration not stated) | 102 | 104 | -18 | 5
COc1ccccc1CCC(=O)Nc1ccc2c(c1)OCCCO2 | 104 | 109 | -11 | -7
CN(C(=O)C1CCCN(c2ncnc3onc(-c4ccc(F)cc4)c23)C1)c1ccccc1 (configuration not stated) | 105 | 103 | -32 | -51
O=c1[nH]ccn(-c2cccc(Cl)c2)c1=O | 103 | 106 | -10 | 4
CS/C(=N\S(=O)(=O)c1cc(C(F)(F)F)cc(C(F)(F)F)c1)N1CCOCC1 | 107 | 108 | -18 | -7
CSc1ncccc1C(=O)NCc1ccccc1C(F)(F)F | 99 | 105 | -5 | -3
COc1ccc(CNCCC2(Cc3ccccc3)CC(C)N(C)CC2C)cc1OC (configuration not stated) | 98 | 112 | 3 | /
Cc1cc(CNCc2ccc(CN3CCOCC3)cc2)c(C)n1-c1ccnn1C(C)C | 93 | 101 | 0 | 12
c1cc2c3c(cccc3c1)NC(c1ccncc1)N2 | 103 | 89 | -32 | /
CC(C)N1C(=O)C2C3C=CC(O3)C2C1=O (configuration not stated) | 101 | 102 | -18 | -12
Cc1nn(CC(=O)O)c(C)c1C | 103 | 102 | -15 | -10
CC(C#N)Sc1nnc(-c2nn(Cc3ccccc3)c(=O)c3ccccc23)o1 (configuration not stated) | 106 | 115 | -16 | -6
Cc1ccc2c(CN(Cc3cccs3)C(C)C)cc(=O)oc2c1 | 102 | 105 | -26 | -8
CC(=O)Oc1ccc2occ(C(=O)c3cc4ccccc4o3)c2c1 | 103 | 106 | -13 | /
The list continues.
SMILES | PV pol inh | PV pol inh intensity | Mtb MenB inh | Mtb MbtI inh
CCC(NC(=O)c1ccc(C#CC2(O)CCCCC2)cc1)C(=O)O (configuration not stated) | 103 | 101 | -27 | -8
COc1ccc(CN(C)/C(C)=C/C(=O)C(F)(F)F)c(OC)c1OC | 102 | 103 | -8 | 19
CN1CC(=O)N(CCCC(=O)OCc2c(Cl)cccc2Cl)C1=O | 98 | 96 | -20 | -5
Cn1c(=O)[nH]c(=O)c2[nH]c(Br)nc21 | 99 | 103 | 8 | 8
NS(=O)(=O)c1ccc(-c2ccc(/C=C3\SC(=S)N(Cc4ccccc4)C3=O)o2)cc1 | 147 | 156 | -3 | /
CC(=O)Oc1ccc2c(c1)CCC1C2CC[C@@]2(C)C1CC[C@@H]2OC(C)=O (some centres not stated) | 102 | 99 | -3 | -10
O=C(CSc1nnc2ccccn12)NCC(=O)Nc1ccc(F)cc1 | 108 | 105 | -26 | 28
COc1ccccc1-c1nnc(SCCNc2ncnc3sc4c(c23)CCC4)n1C | 101 | 94 | -21 | 16
CSc1nc2ccccc2n1CC(=O)N(C)C1CCCCC1 | 101 | 105 | / | 1
Cc1cccc(Cl)c1-n1sc(=O)n(CC2CC2)c1=O | 96 | 94 | -6 | 72*
Cc1cc(C)c(S(=O)(=O)NCc2ccc(C(=O)NCCc3ccc(Cl)cc3)cc2)c(C)c1 | 103 | 101 | -20 | 0
O=C(OCC(=O)c1ccc[nH]1)c1ccccc1 | 102 | 112 | -4 | 21
CCc1nn(CC(=O)NCc2ccc(F)cc2)c(=O)c2cc3sc(C)cc3n12 | 101 | 103 | -2 | -12
COC(=O)c1ccc2c(=O)[nH]c(COC(=O)CNC(=O)c3cccs3)nc2c1 | 97 | 103 | -17 | 48
O=C(CSc1nc2sc3c(c2c(=O)n1Cc1ccco1)CCC3)c1cccs1 | 103 | 101 | -17 | 12
CCOc1ccc(NC(=O)CSc2nnnn2CC(=O)O)cc1 | 103 | 110 | 3 | /
CC1(C)CC2CC(C)(CN2C(=O)COC(=O)c2ccc(S(=O)(=O)NCc3ccco3)cc2)C1 (configuration not stated) | 101 | 94 | -25 | 4
NC(=O)Nc1ccc(C(=O)O)cc1 | 102 | 104 | -14 | /
Cc1cccc(-n2nc(C)c(C(=O)N3CCc4ccccc43)c2-n2cccc2)c1 | 100 | 101 | 6 | 1
CC(C)C1C(C#N)=C(N)Oc2n[nH]c(-c3ccccc3)c21 (configuration not stated) | 103 | 106 | -14 | -5
FC(F)Sc1ccc(N=C=S)cc1 | 102 | 102 | -42 | 3
Cc1[nH]c(=O)c(C#N)c(C)c1CCC(=O)O | 110 | 104 | 5 | 102
O=c1cc(CSCc2n[nH]c(=O)[nH]2)c2ccccc2[nH]1 | 102 | 101 | 2 | 25
COc1cccc2c(=O)cc(C)[nH]c12 | 102 | 102 | -11 | /
Cc1cccc(C(=O)OCC(=O)Nc2ccc3[nH]c(=O)[nH]c3c2)c1C | 101 | 92 | -19 | 5
More results follow.
SMILES | PV pol inh | PV pol inh intensity | Mtb MenB inh | Mtb MbtI inh
N#CC(C(=O)c1ccc(F)cc1)c1ccccn1 (configuration not stated) | 105 | 97 | 4 | 22
COC(=O)C1=C(CNCCc2ccccc2)NC(=O)NC1c1ccc(OC)c(OC)c1 (configuration not stated) | 107 | 100 | -56 | -4
Cc1ccc(CNCc2cccn2-c2nc3ccccc3s2)cc1 | 99 | 102 | 7 | -1
O=C(NCc1nc(-c2ccccc2)cs1)c1ccccc1 | 102 | 113 | 7 | /
Cc1ccc(S(=O)(=O)NCc2ccc(/C=N/NC(=O)c3ccco3)o2)cc1 | 100 | 102 | -8 | 19
Cn1nc(CC(=O)Nc2ccc(N3CCN(C(=O)OC(C)(C)C)CC3)cc2)c2ccccc2c1=O | 102 | 100 | 14 | -9
CN(C)Cc1ccc(CNC(=O)c2ccc[nH]2)cc1 | 105 | 109 | -5 | -7
O=C(Cn1c2ccccc2c2cn[nH]c(=O)c21)N1CCCCC1 | 103 | 104 | -11 | 56
Nc1nonc1C(=O)NCc1ccco1 | 101 | 104 | -1 | /
O=C1c2ccccc2C(=O)c2c1oc1c3c(ccc21)OCN(CCC1=CCCCC1)C3 | 98 | 99 | -22 | 5
Nc1nc(C23CC4CCC(CC(C4)C2)C3)cs1 | 104 | 104 | -22 | 11
COc1cc(CCC(=O)NCc2ccc(S(N)(=O)=O)cc2)cc(OC)c1OC | 107 | 104 | -14 | -12
O=C(Nc1ccccc1F)NC1CCN(Cc2nnnn2Cc2ccc(F)cc2)CC1 | 102 | 99 | -14 | 2
CCOC(=O)c1sc(NC(=NC)c2ccco2)cc1C | 105 | 101 | -32 | 7
Cn1c(C(=O)c2ccccc2)nc2ccccc21 | 100 | 101 | -8 | 1
C=CCn1c(SCC(=O)Nc2ccc3c(c2)OCO3)nnc1-c1ccccc1F | 99 | 104 | -16 | -9
COc1ccc(C2=NC(c3sccc3C)NC(c3cc(Cl)ccc3O)C2)cc1 (configuration not stated) | 105 | 101 | -20 | 10
O=C(Nc1ccccc1F)c1cc2c(Cl)ccc3c2n1CCO3 | 106 | 106 | -8 | 109
Cc1nc(C)c(C(=O)N/N=C/c2cc(Br)ccc2O)s1 | 122 | 133 | -54 | -7
Cc1cc(C)n(-c2n[nH]c(=S)n2N)n1 | 104 | 104 | -6 | /
CC1=CC(=O)OC1Cc1ccc2ccccc2n1 (configuration not stated) | 101 | 99 | -15 | 49
Oc1c(Cl)cc(Cl)cc1C1Nc2cccc3cccc(c23)N1 | 101 | 111 | -3 | -7
COC(=O)c1cc(-c2cccnc2)nn1-c1nc(C)cc(C)n1 | 97 | 93 | -12 | 73
CCCCN(C)C(=O)c1cn(C)c2ccc(S(=O)(=O)N(CC)CC)cc2c1=O | 99 | 102 | 4 | 7
Cc1coc(C)c1C(=O)CC1(O)C(=O)Nc2cc(Cl)cc(Cl)c21 (configuration not stated) | 102 | 106 | 3 | -8
CC(=O)N1c2ccccc2C(=O)C1N(Cc1ccccc1)C(C)C (configuration not stated) | 100 | 105 | -9 | i
COc1ccc(CCN=C2SCC(=O)N2Cc2ccccc2)cc1OC | 100 | 99 | -19 | -1

Entries above that have a thiophene ring, fused or not:
SMILES | PV pol inh | PV pol inh intensity | Mtb MenB inh | Mtb MbtI inh
O=C(COC(=O)/C(=C/c1cccs1)c1cccs1)Nc1ccccc1 | 106 | 110 | -22 | -4
CCC(Nc1ccccc1)C(=O)N/N=C/c1cccs1 (configuration not stated) | 103 | 101 | -42 | 12
Cc1ccc2c(CN(Cc3cccs3)C(C)C)cc(=O)oc2c1 | 102 | 105 | -26 | -8
COc1ccccc1-c1nnc(SCCNc2ncnc3sc4c(c23)CCC4)n1C | 101 | 94 | -21 | 16
CCc1nn(CC(=O)NCc2ccc(F)cc2)c(=O)c2cc3sc(C)cc3n12 | 101 | 103 | -2 | -12
COC(=O)c1ccc2c(=O)[nH]c(COC(=O)CNC(=O)c3cccs3)nc2c1 | 97 | 103 | -17 | 48
O=C(CSc1nc2sc3c(c2c(=O)n1Cc1ccco1)CCC3)c1cccs1 | 103 | 101 | -17 | 12
CCOC(=O)c1sc(NC(=NC)c2ccco2)cc1C | 105 | 101 | -32 | 7
COc1ccc(C2=NC(c3sccc3C)NC(c3cc(Cl)ccc3O)C2)cc1 (configuration not stated) | 105 | 101 | -20 | 10
